Assay outcomes (PubChem BioAssay)
Autofluor counter – compound fluorescence in toxin protease inhibitor counterscreen. 360,000 tested, 3.1% active. fluorescence intensity (no concentration beside the values). compound autofluorescence counterscreen, microsphere flow cytometry; stronger effect = higher value;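 active = at least 3 SD above the mean of all compounds, about 16000 in these data; inconclusive = too few beads counted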;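 note: 100 nL of 1 mM stock went into each well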
BJeLR viability – kills HRASV12-expressing BJeLR cells | BJeLR (HRASV12) viability, CellTiter-Glo ATP luminescence, 48 h; reference of the scale not given here | inhibition, % (concentration not given with the values) | 300,000 tested, 0.17% active | AID 1554;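 active = replicate mean above 50%; inconclusive = above 50% but judged a plate artefact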;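 note: 50 nL library stock added to about 25 µL; numbers are from one replicate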
Sa RN4220 lethal – kills Staphylococcus aureus RN4220; S. aureus RN4220 growth, OD600, 16 h; inhibition, % (no concentration beside the values); 330,000 tested, 0.33% active;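 active = z-score of -3 or lower and OD600 up to 0.18 on both plates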;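 note: plate controls were untreated cells for no effect and reference antibiotic for full effect; stock transfer was 100 nL into about 80 µL; one replicate is shown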
Sa ugtP lethal – kills S. aureus RN4220 lacking UgtP. S. aureus RN4220 ugtP deletion, OD600 growth, 16 h; some inactives read as strong as hits. growth inhibition, % (test concentration not listed). 330,000 tested, 0.54% active. AID 1259309;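 active = z-score under -3 and OD600 up to 0.15 on both plates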;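 note: plate controls were untreated wells for no effect and antibiotic for full effect; wells of about 80 µL received 100 nL stock; the first replicate is given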
Mtb hypoxia rep – Mtb hypoxia fluorescent reporter inhibition; M. tuberculosis hypoxia-regulated fluorescent reporter, fluorescence; fluorescence inhibition, % (test concentration not listed); 300,000 tested, 0.1% active; AID 1159583;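 active = 35 to 45% if threefold the growth effect, above 45% if 1.5-fold the growth effect; inactive = the rest, general growth blockers included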;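 note: wells of about 50 µL received 100 nL stock; 0% = vehicle wells and 100% = reference inhibitor wells; whole bacteria with a GFP reporter of the hypoxia response; strong numbers were not always called active; many hits fall short of the cut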
PrP UTR inh – inhibition of PrP 5' UTR reporter expression; cell-based PrP 5' UTR mRNA reporter, plate reader; inhibition, % (concentration not given with the values); 340,000 tested, 0.35% active;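 active = every replicate at 50% or more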;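 note: 0 = median of the neutral control wells; tested in H4 reporter cells; numbers are from one replicate; inactives centre near -14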
Mtb hypoxia rep growth – second read-out of Mtb hypoxia rep, no call of its own (marks repeat the call); growth inhibition, %; measured here: M. tuberculosis growth (absorbance);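 0% = vehicle and 100% = reference antibiotic; read after six days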
The depositor's hits bear a star; ? = inconclusive; nt = no result given.

entry	smiles	Autofluor counter	BJeLR viability	Sa RN4220 lethal	Sa ugtP lethal	Mtb hypoxia rep	Mtb hypoxia rep growth	PrP UTR inh
1	Cc1c(C)c2ccc(O[C@@H]3O[C@H](CO)[C@H](O)[C@H](O)[C@H]3O)c(C)c2oc1=O	3203	-5	2.6	3	17	9	2
2	Cc1ccc(-n2nc3c(=O)n(CCCC(=O)NCCc4ccccc4)nc(C)c3c2C)cc1	5973	3	3.2	7	4	3	-20
3	NC1C2CN3CCN(C2)CC1(c1ccccc1)C3 (configuration not stated)	4040	-3	3.4	6	0	7	-29
4	CCNC(=S)NN=C1CCC(C(C)(C)C)CC1 (configuration not stated)	?	-1	0.9	0	-10	-5	1
5	CCOCCCNC(=O)c1ccc(NC(C)=O)cc1	3186	6	5.3	3	nt	nt	-16
6	CCOc1ccc(C(=O)Nc2nnc(NC(=S)Nc3ccccc3)s2)cc1	5307	0	nt	nt	nt	nt	-11
7	Cc1cc2ccccc2c(=O)n1CC(=O)Nc1ccc2c(c1)OCCO2	2783	4	5.2	10	6	-3	-16
8	COc1ccc(-c2cc(C#N)nc(N3CCN(c4ccccc4)CC3)n2)cc1	4354	-7	-1.0	5	1	9	-7
9	CCCCNC(=O)c1ccccc1C(=O)NC1(C(=O)NCCCC)CCCC1	3695	nt	2.1	1	-5	-3	-8
10	C#Cc1ccc([C@H]2C=C(C(=O)N3CCOCC3)O[C@@H](OCC)[C@@H]2CCCO)cc1	3042	5	nt	nt	nt	nt	-21
11	COc1ccc(C(=O)N/N=C/c2ccc(SC)cc2)cc1	2264	11	nt	nt	nt	nt	-25
12	COc1ccc(-c2csc(N(C)C(=O)c3ccco3)n2)cc1	3420	9	4.4	8	6	7	-46
13	COc1ccc(Nc2nnc(SCC(=O)c3cc(C)n(CC4CCCO4)c3C)s2)cc1 (configuration not stated)	4793	nt	-0.5	-5	nt	nt	-10
14	CC(=O)c1cccc(N(CC(=O)NC2CCCCC2)C(=O)c2csnn2)c1	3949	-10	3.8	6	8	4	-24
15	Cc1nc2ccccc2c2oc(C(=O)NCCCN3CCCC3=O)cc12	4889	-4	3.4	4	nt	nt	-4
16	C/C(=N\NS(=O)(=O)c1ccc(Cl)c([N+](=O)[O-])c1)c1ccc(C)o1	3900	1	nt	nt	nt	nt	-23
17	CCN(CC)CCNc1ncnc2c1sc1nc(N3CCOCC3)c3c(c12)CCCC3	3914	20	2.8	0	15	7	8
18	CC(=O)c1c(C)[nH]c(C(=O)Nc2cccc(S(=O)(=O)N3CCCC3)c2)c1C	3954	nt	0.9	2	16	8	-40
19	CC(C)(C)n1ncc2c(=O)n(CC(=O)Nc3ccc4c(c3)OCCO4)cnc21	3133	2	2.9	-6	-6	10	3
20	CCCCCOc1ccc(Cn2ccnc2)cc1[N+](=O)[O-]	2641	16	-0.1	13	7	1	-34
21	Cc1ccc(/C=C2\SC(=S)N(CCC(=O)NNS(=O)(=O)c3ccccc3)C2=O)cc1	4503	0	-1.4	3	5	0	-27
22	COc1ccc(C(=O)Nc2ccccc2[N+](=O)[O-])cc1S(=O)(=O)N1CCOCC1	5371	-5	4.3	1	13	-9	-11
23	O=C(Nc1cccc(C(F)(F)F)c1)C1CCCN(c2ncccn2)C1 (configuration not stated)	11578	-7	2.4	-3	4	2	-27
24	CCC(C)NC(=O)c1cn(C)c(=O)c2cc(OC)c(OC)cc12 (configuration not stated)	6258	-23	5.2	7	7	3	-15

A draw from above in order of SMILES length, smallest number first:
entry	smiles	Autofluor counter	BJeLR viability	Sa RN4220 lethal	Sa ugtP lethal	Mtb hypoxia rep	Mtb hypoxia rep growth	PrP UTR inh
4	CCNC(=S)NN=C1CCC(C(C)(C)C)CC1 (configuration not stated)	?	-1	0.9	0	-10	-5	1
3	NC1C2CN3CCN(C2)CC1(c1ccccc1)C3 (configuration not stated)	4040	-3	3.4	6	0	7	-29
11	COc1ccc(C(=O)N/N=C/c2ccc(SC)cc2)cc1	2264	11	nt	nt	nt	nt	-25
20	CCCCCOc1ccc(Cn2ccnc2)cc1[N+](=O)[O-]	2641	16	-0.1	13	7	1	-34
12	COc1ccc(-c2csc(N(C)C(=O)c3ccco3)n2)cc1	3420	9	4.4	8	6	7	-46
15	Cc1nc2ccccc2c2oc(C(=O)NCCCN3CCCC3=O)cc12	4889	-4	3.4	4	nt	nt	-4
24	CCC(C)NC(=O)c1cn(C)c(=O)c2cc(OC)c(OC)cc12 (configuration not stated)	6258	-23	5.2	7	7	3	-15
23	O=C(Nc1cccc(C(F)(F)F)c1)C1CCCN(c2ncccn2)C1 (configuration not stated)	11578	-7	2.4	-3	4	2	-27
6	CCOc1ccc(C(=O)Nc2nnc(NC(=S)Nc3ccccc3)s2)cc1	5307	0	nt	nt	nt	nt	-11
8	COc1ccc(-c2cc(C#N)nc(N3CCN(c4ccccc4)CC3)n2)cc1	4354	-7	-1.0	5	1	9	-7
17	CCN(CC)CCNc1ncnc2c1sc1nc(N3CCOCC3)c3c(c12)CCCC3	3914	20	2.8	0	15	7	8
13	COc1ccc(Nc2nnc(SCC(=O)c3cc(C)n(CC4CCCO4)c3C)s2)cc1 (configuration not stated)	4793	nt	-0.5	-5	nt	nt	-10
16	C/C(=N\NS(=O)(=O)c1ccc(Cl)c([N+](=O)[O-])c1)c1ccc(C)o1	3900	1	nt	nt	nt	nt	-23
22	COc1ccc(C(=O)Nc2ccccc2[N+](=O)[O-])cc1S(=O)(=O)N1CCOCC1	5371	-5	4.3	1	13	-9	-11
21	Cc1ccc(/C=C2\SC(=S)N(CCC(=O)NNS(=O)(=O)c3ccccc3)C2=O)cc1	4503	0	-1.4	3	5	0	-27
10	C#Cc1ccc([C@H]2C=C(C(=O)N3CCOCC3)O[C@@H](OCC)[C@@H]2CCCO)cc1	3042	5	nt	nt	nt	nt	-21
1	Cc1c(C)c2ccc(O[C@@H]3O[C@H](CO)[C@H](O)[C@H](O)[C@H]3O)c(C)c2oc1=O	3203	-5	2.6	3	17	9	2

Next section.
entry	smiles	Autofluor counter	BJeLR viability	Sa RN4220 lethal	Sa ugtP lethal	Mtb hypoxia rep	Mtb hypoxia rep growth	PrP UTR inh
25	Cc1ccn2c(=O)nc(SCC(=O)Nc3cccc4ccccc34)nc2c1	?	2	2.7	-4	5	10	-9
26	Cc1ccc2nsnc2c1N(S(C)(=O)=O)S(C)(=O)=O	2125	3	4.2	7	nt	nt	-13
27	CC(=NNC(=O)C(O)c1ccccc1)c1ccc(Cl)s1 (configuration not stated)	nt	nt	4.6	-7	1	6	nt
28	COCCN(Cc1cc2cc3c(cc2nc1Cl)OCO3)C(=O)c1cccc(C)c1	5169	13	0.4	7	3	7	-18
29	Cn1cc(CCC(=O)N2CCCC(Nc3ccc(F)cc3)C2)cn1 (configuration not stated)	4082	3	3.5	7	-2	-4	-26
30	CCOC(=O)C1C2COc3ccc(C)cc3C2N2C(=O)CN(Cc3ccccc3)C(=O)[C@@]12C (some centres not stated)	nt	nt	3.1	4	-2	3	nt
31	C[C@H](CO)N1C[C@H](C)[C@@H](CN(C)C(=O)Nc2ccc(C(F)(F)F)cc2)Oc2ccc(NC(=O)Nc3ccccc3)cc2C1=O	3134	nt	-4.7	3	-11	1	-10
32	O=C(COc1ccc(Cl)cc1)Nc1cc2c3c(c1)CC(=O)N3CCC2	nt	2	12	5	-4	8	-13
33	CC1(C)Cc2ccccc2-c2nnc(SCc3ccc(C#N)cc3)n21	9066	0	20	-5	6	5	-21
34	COC(=O)c1nn(-c2ccccc2)c(Cl)c1/C=N/OCc1ccc(C)cc1	2216	-2	nt	nt	nt	nt	-11
35	Cc1cc([N+](=O)[O-])ccc1NC(=O)c1cc2ccccc2o1	4052	-12	0.7	7	14	13	-39
36	COc1cc(C(=O)OCCCN2CCOCC2)ccc1O	3558	-2	5.5	6	6	6	-22
37	Cc1ccc(CN2C(=O)CCC2C(=O)NCc2cccnc2)cc1 (configuration not stated)	21210*	-13	-2.6	2	4	0	-2
38	COc1ccc(C(=O)CSc2nnc(CN3CCCCC3)n2-c2ccc(F)cc2)cc1OC	2073	-13	2.2	-5	4	-4	-10
39	Nc1ccc(Cl)cc1C(=O)c1ccccc1Cl	2399	-29	-0.5	11	8	7	-4
40	CCN(CCCn1c(=S)[nH]c2ccc(N3CCOCC3)cc2c1=O)c1ccccc1	4045	9	nt	nt	nt	nt	-23
41	C=CCCC(=O)NC1CCCc2c1cnn2-c1ccccc1F (configuration not stated)	3061	5	4.8	3	1	2	-46
42	Cc1nnc(SCC(=O)NC2CCCc3c2cnn3-c2ccccc2F)o1 (configuration not stated)	5323	2	1.8	1	3	3	-7
43	O=C(NNC(=O)C1CC1)c1cccc([N+](=O)[O-])c1	5528	nt	0.4	7	5	14	-13
44	O=C(NCC1CCCO1)C(=O)NN=Cc1c(F)cccc1Cl (configuration not stated)	nt	nt	15	-3	5	-2	nt
45	O=C(NN1C(=O)C2C(C1=O)C1C=CC2C12CC2)c1ccccc1Cl (configuration not stated)	3146	-13	3.6	7	2	1	5
46	NC(=O)c1nsc(C(=O)N(Cc2cccnc2)C(C(=O)NCc2ccc(F)cc2)c2ccc(O)cc2)c1N (configuration not stated)	4110	1	1.5	2	7	8	-8
47	O=C(O)c1sccc1S(=O)(=O)N1CCOCC1	5229	nt	5.2	2	-4	-3	-13
48	COC(=O)c1ccc(NC(=O)C(=O)c2cn(CC(=O)N3CCOCC3)c3ccccc23)cc1	4470	-8	-1.2	-5	-17	-12	-21
49	COc1ccc(OC)c(S(=O)(=O)N2CCCC(C(=O)NCc3cccnc3)C2)c1 (configuration not stated)	3062	1	2.2	10	12	-2	-19
50	COc1ccc(N(C)S(=O)(=O)c2cccc(C(=O)OCC(=O)NCc3ccccc3OC)c2)cc1	?	4	3.6	-3	-7	3	-12
51	CCOC(=O)N1CCN(CC(=O)Nc2cc(OC)c(OC)cc2C#N)CC1	4256	-12	1.5	5	5	-9	-2
52	CC(C)(C)c1ccc(C(=O)N/N=C2\C3CN4CCN(C3)CC2(c2ccccc2)C4)cc1	2465	-12	nt	nt	nt	nt	6
53	CCSc1nc(O)c(C(c2cccc(OC)c2)c2c(O)nc(SCC)[nH]c2=O)c(=O)[nH]1	4003	1	0.9	6	8	20	-6
54	CC(=O)N1CCOc2ccc(S(=O)(=O)NCCc3cccc(C)c3)cc21	6224	7	0.0	3	2	3	-20
55	CN(C(=O)C12CC3CC(CC(C3)C1)C2)C1CCS(=O)(=O)C1 (configuration not stated)	3411	-5	7.7	0	7	3	-25
56	COc1ccc2cc(CN(CC3COCCO3)S(=O)(=O)c3ccccc3)c(=O)[nH]c2c1 (configuration not stated)	2162	4	0.5	2	nt	nt	4
57	CC[C@]1(C(=O)OC)[C@H]2C(=O)N(Cc3ccccc3)C(=O)[C@H]2[C@H]2CN=C(SCc3ccc(C#N)cc3)N21	3492	nt	3.5	-1	-3	12	-14
